Mtb MenB inh: inhibitors of Mycobacterium tuberculosis MenB enzyme. P9WNP5. MenB enzyme assay, absorbance read-out; some hits fall short of the stated cut. inhibition, %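 (about 12 µg/mL by stock and volumes)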. 100,000 tested, 0.43% active. AID 540299;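 active = mean of two replicates above 30%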;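 note: 0% = no compound and 100% = wells with inactive enzyme; the first replicate is given; strong numbers were not always called active; inactives centre near -10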
Mtb MbtI inh: inhibitors of Mycobacterium tuberculosis siderophore enzyme MbtI; 100,000 tested, 0.89% active; purified MbtI enzyme, fluorescence intensity read-out; inhibition, %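 (about 17 µg/mL by stock and volumes)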; P9WFX0; AID 493033;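 active = above 50% in both replicates, above 80% if mildly self-fluorescent; inactive = the rest, strongly fluorescent compounds included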;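 note: 0% = mean of negative and 100% = mean of positive controls; one replicate is shown; some compounds called inactive have numbers as strong as hits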
Target sequence (P9WFX0 whole entry, looked up): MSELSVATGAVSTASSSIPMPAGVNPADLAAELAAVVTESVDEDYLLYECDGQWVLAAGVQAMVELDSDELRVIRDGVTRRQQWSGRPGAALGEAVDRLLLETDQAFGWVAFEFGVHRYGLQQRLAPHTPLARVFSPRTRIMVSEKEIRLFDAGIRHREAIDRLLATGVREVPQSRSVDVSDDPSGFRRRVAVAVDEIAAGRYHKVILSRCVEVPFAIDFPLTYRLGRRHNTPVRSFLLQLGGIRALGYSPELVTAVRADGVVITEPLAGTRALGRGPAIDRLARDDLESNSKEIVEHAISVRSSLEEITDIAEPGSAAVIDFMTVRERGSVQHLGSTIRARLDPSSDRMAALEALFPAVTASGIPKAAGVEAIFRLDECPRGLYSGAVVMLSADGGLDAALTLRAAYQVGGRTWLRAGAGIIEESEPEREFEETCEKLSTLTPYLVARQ
PV pol inh: poliovirus RNA polymerase inhibition. P03300. poliovirus polymerase elongation, fluorescence polarization; stronger effect = lower value. % elongation, % (compound at 16.7 µg/mL). 150,000 tested, 0.66% active. AID 588519; in the data active = % elongation below about 90%; note: some results filed as inactive read as strong as hits
Target sequence (P03300 1749-2209 limits assumed): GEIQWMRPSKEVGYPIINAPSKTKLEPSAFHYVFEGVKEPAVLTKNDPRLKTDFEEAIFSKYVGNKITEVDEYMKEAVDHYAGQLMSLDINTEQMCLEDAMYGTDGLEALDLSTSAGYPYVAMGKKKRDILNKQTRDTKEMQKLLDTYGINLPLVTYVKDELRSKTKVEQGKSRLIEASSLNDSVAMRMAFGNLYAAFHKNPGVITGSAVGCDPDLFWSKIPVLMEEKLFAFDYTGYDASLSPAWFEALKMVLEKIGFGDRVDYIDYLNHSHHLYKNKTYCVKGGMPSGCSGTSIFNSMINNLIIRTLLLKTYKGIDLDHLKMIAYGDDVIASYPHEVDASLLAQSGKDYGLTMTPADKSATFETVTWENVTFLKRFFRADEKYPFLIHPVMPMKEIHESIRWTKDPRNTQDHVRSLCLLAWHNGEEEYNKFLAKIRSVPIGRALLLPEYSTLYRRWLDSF
PV pol inh intensity: recorded beside PV pol inh, whose call it bears; % elongation; measured here: total intensity read-out; formula for this scale not given here;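 total fluorescence in place of polarization; lower means less elongation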
Starred values were filed as active, the others as inactive.

O=C(CCNc1ccc(Cl)cc1)c1cccs1 was read as Mtb MenB inh -29, Mtb MbtI inh 18, PV pol inh 101 and PV pol inh intensity 103.
For [O-]/[N+](=C\c1ccc(OC(F)F)cc1)c1ccccc1 the results were Mtb MenB inh -23, Mtb MbtI inh 35, PV pol inh 101 and PV pol inh intensity 102.
CCN(CC)C(=O)c1ccc(NC(=O)Nc2ccccc2F)cc1 was read as Mtb MenB inh 5, Mtb MbtI inh -25, PV pol inh 102 and PV pol inh intensity 109.
Screening O=C(Cc1ccc2c(c1)OCCO2)Nc1cccc(C(F)(F)F)c1 returned Mtb MenB inh -21, Mtb MbtI inh -7, PV pol inh 103 and PV pol inh intensity 99.
For CN(C)N1C(=O)CC(n2cnc3ccccc32)C1=O (configuration not stated) the results were Mtb MenB inh 9, Mtb MbtI inh -13, PV pol inh 101 and PV pol inh intensity 101.
For CCN(CC)Cc1nc2c(c(=O)[nH]1)C(CC)(CC)Cc1ccccc1-2 the results were Mtb MenB inh -3, Mtb MbtI inh -6, PV pol inh 105 and PV pol inh intensity 101.
For CCC(CC(=O)NCc1ccc(Cl)cc1Cl)n1ccnc1 (configuration not stated) the results were Mtb MenB inh -23, Mtb MbtI inh -3, PV pol inh 105 and PV pol inh intensity 108.
For CCCC[n+]1cc(-c2ccccc2)nc(N2CCCCC2)n1 the results were Mtb MenB inh -9, PV pol inh 103 and PV pol inh intensity 110.
Screening COc1ccc2[nH]c3ccccc3c2c1 returned Mtb MenB inh -11, Mtb MbtI inh 88, PV pol inh 100 and PV pol inh intensity 103.
For COc1ccc(N2CCN(C(=O)CCNS(=O)(=O)c3ccc(Br)s3)CC2)cc1 the results were Mtb MenB inh -26, Mtb MbtI inh 11, PV pol inh 104 and PV pol inh intensity 96.
Screening COCCNc1oc(-c2cccc(C)c2)nc1C#N returned Mtb MenB inh -20, Mtb MbtI inh 130, PV pol inh 101 and PV pol inh intensity 101.
CCc1ccccc1NC(=O)C1CCCN(c2nnc(-n3cccc3)s2)C1 (configuration not stated) was read as Mtb MenB inh -14, Mtb MbtI inh -4, PV pol inh 105 and PV pol inh intensity 106.
Screening Cc1ccc(S(=O)(=O)N/N=C/c2c(O)ccc3oc4c(c23)CCCC4)cc1 returned Mtb MenB inh -37, Mtb MbtI inh -1, PV pol inh 105 and PV pol inh intensity 107.
`CCOc1cc(N2CCOCC2)c(OCC)cc1NC(=O)COC(=O)CN=C1NS(=O)(=O)c2ccccc21` gave Mtb MenB inh -31, Mtb MbtI inh -5, PV pol inh 103 and PV pol inh intensity 107.
`Cc1ccc(NC(=O)C2(NC(=O)c3ccc(-n4cnnn4)cc3)CCCCC2)cc1` gave Mtb MenB inh -12, PV pol inh 107 and PV pol inh intensity 111.
Screening CCNC(=O)c1cccc(NC(=O)Cc2n[nH]c(=O)c3ccccc23)c1 returned Mtb MenB inh -22, Mtb MbtI inh -3, PV pol inh 103 and PV pol inh intensity 109.
Screening COc1ccccc1CNC(=O)C1CCCN(S(=O)(=O)c2ccc(C)cc2)C1 (configuration not stated) returned Mtb MenB inh -1, Mtb MbtI inh -7, PV pol inh 101 and PV pol inh intensity 105.
`NC(=O)N/N=C/c1cn(-c2ccccc2)nc1-c1ccccc1` gave Mtb MenB inh 7, Mtb MbtI inh -6, PV pol inh 100 and PV pol inh intensity 103.
O=C(CSC(=S)N1CCSCC1)c1ccccc1 was read as Mtb MenB inh -20, Mtb MbtI inh 8, PV pol inh 100 and PV pol inh intensity 100.
COc1cc(/C=C/C2=NNC(=O)CC2)cc(OC)c1OC was read as Mtb MenB inh -17, Mtb MbtI inh -5, PV pol inh 104 and PV pol inh intensity 105.
Screening O=C(CSc1nccc(=O)[nH]1)CSc1nccc(=O)[nH]1 returned Mtb MenB inh -12, Mtb MbtI inh 23, PV pol inh 99 and PV pol inh intensity 99.
`CC(C)(C)c1cn(-c2ccc(F)cc2)c(=S)[nH]1` gave Mtb MenB inh 3, Mtb MbtI inh 12, PV pol inh 99 and PV pol inh intensity 98.
`COc1cc2c(cc1OC)CN(CCC(=O)O)CC2` gave Mtb MenB inh -18, Mtb MbtI inh -11, PV pol inh 104 and PV pol inh intensity 106.
For O=C(OC1CCCCC1=O)c1ccc(O)cc1 (configuration not stated) the results were Mtb MbtI inh -2, PV pol inh 101 and PV pol inh intensity 96.
For CCN1C(=O)C(=Cc2ccc(-c3ccc(Br)c(Cl)c3)o2)C(=O)N(CC)C1=S the results were Mtb MenB inh 4, Mtb MbtI inh 90*, PV pol inh 99 and PV pol inh intensity 107.
Screening CCC(=O)N1c2ccc(S(=O)(=O)CCC(=O)Nc3ccc(C)c(F)c3)cc2CC1C (configuration not stated) returned Mtb MenB inh -17, Mtb MbtI inh -5, PV pol inh 102 and PV pol inh intensity 101.
For COc1cccc(C2Nc3ccccc3-c3nc4ccccc4n32)c1 (configuration not stated) the results were Mtb MenB inh -17, Mtb MbtI inh 117, PV pol inh 101 and PV pol inh intensity 100.
`CC(C)(C)C(=O)Nc1ccc(N2CCN(C(=O)c3ccco3)CC2)c(Cl)c1` gave Mtb MenB inh -33, Mtb MbtI inh -11, PV pol inh 101 and PV pol inh intensity 98.
`CNc1c(NC(=O)Nc2cccc(OC)c2)c(=O)oc2ccccc12` gave Mtb MenB inh -19, Mtb MbtI inh 3, PV pol inh 102 and PV pol inh intensity 101.
For COC(=O)c1ccc(-c2ccco2)n1CC(=O)N1CCc2ccccc21 the results were Mtb MenB inh 3, Mtb MbtI inh -59, PV pol inh 99 and PV pol inh intensity 100.
CCN1CCCC1CNc1ncnc2c1cnn2-c1ccc(C)cc1 (configuration not stated) was read as Mtb MenB inh -22, Mtb MbtI inh 118, PV pol inh 101 and PV pol inh intensity 103.
Screening CCCCC(=O)Oc1cc(-c2ccccc2)c2oc(=O)sc2c1 returned Mtb MenB inh -43, Mtb MbtI inh 0, PV pol inh 102 and PV pol inh intensity 107.
For CN1C(=O)C2(c3ccccc31)C(C(=O)N1CCC3(CC1)OCCO3)CC1CCCN12 (configuration not stated) the results were Mtb MenB inh 7, Mtb MbtI inh 19, PV pol inh 101 and PV pol inh intensity 101.
O=C(CSc1nc(-c2ccco2)cc(C(F)(F)F)n1)N(Cc1ccccc1)Cc1ccccc1 was read as Mtb MenB inh -25, Mtb MbtI inh 1, PV pol inh 102 and PV pol inh intensity 99.
CNS(=O)(=O)c1cccc(C(=O)NCc2ccccc2)c1 was read as Mtb MenB inh -12, Mtb MbtI inh 3, PV pol inh 105 and PV pol inh intensity 108.
`Cc1[nH]c2ccc(CNS(=O)(=O)c3ccc(S(=O)(=O)N4CCOCC4)cc3)cc2c1C` gave Mtb MenB inh -109, Mtb MbtI inh -2, PV pol inh 105 and PV pol inh intensity 101.
Screening C(=Nc1ccc2c(c1)OCCOCCOCCO2)c1c[nH]c2ccccc12 returned Mtb MenB inh 3, Mtb MbtI inh -3, PV pol inh 100 and PV pol inh intensity 106.
`COc1ccccc1OCCNC(=O)c1coc2ccccc2c1=O` gave Mtb MenB inh -22, Mtb MbtI inh -7, PV pol inh 103 and PV pol inh intensity 108.
Screening CN(C)/C=C1\S/C(=N\S(=O)(=O)c2ccc(Cl)cc2)N(C2CCCCC2)C1=O returned Mtb MenB inh -12, Mtb MbtI inh 8, PV pol inh 105 and PV pol inh intensity 107.
Screening CCOC(=O)c1csc(NC(=O)Nc2cccc(OC)c2)n1 returned Mtb MenB inh -29, Mtb MbtI inh 0, PV pol inh 101 and PV pol inh intensity 101.
For CC1=C(C(=O)Nc2ccccc2)C2(CCCCC2)C(C#N)=C(SCC(=O)Nc2nccs2)N1 the results were Mtb MenB inh -3, PV pol inh 106 and PV pol inh intensity 109.
CCN1C(=S)SC(=O)C1=C1C=C(C)N(CCO)C(C)=C1 was read as Mtb MenB inh -382, Mtb MbtI inh 28, PV pol inh 101 and PV pol inh intensity 218.
`CCOC(=O)c1c(-c2cccs2)csc1NC(C)=O` gave Mtb MenB inh 15, Mtb MbtI inh 13, PV pol inh 101 and PV pol inh intensity 100.
O=c1[nH]c(=O)n(-c2ccccc2)c2c1C(C(F)(F)F)(C(F)(F)F)N=C(c1ccncc1)N2 was read as Mtb MenB inh -4, PV pol inh 100 and PV pol inh intensity 103.
`CCn1c(SCC(=O)N(C)C2CCCCC2)nc2ccc(Br)cc2c1=O` gave Mtb MenB inh -31, Mtb MbtI inh -14, PV pol inh 103 and PV pol inh intensity 107.
COc1ccccc1NC1=NC(c2ccc(Cl)cc2)N=C(N)N1 (configuration not stated) was read as Mtb MenB inh -18, Mtb MbtI inh -1, PV pol inh 94 and PV pol inh intensity 98.
For CC(C)(C)C(=O)CSc1ncccn1 the results were Mtb MbtI inh 47, PV pol inh 102 and PV pol inh intensity 106.
Screening CC(OC(=O)CC1CC2CCC1C2)C(=O)Nc1ccc(N2CCOCC2)cc1 (configuration not stated) returned Mtb MenB inh -19, Mtb MbtI inh 12, PV pol inh 98 and PV pol inh intensity 102.

A draw from above in order of molar mass, largest number first:
Screening COc1ccccc1CNC(=O)C1CCCN(S(=O)(=O)c2ccc(C)cc2)C1 (configuration not stated) returned Mtb MenB inh -1, Mtb MbtI inh -7, PV pol inh 101 and PV pol inh intensity 105.
`CNc1c(NC(=O)Nc2cccc(OC)c2)c(=O)oc2ccccc12` gave Mtb MenB inh -19, Mtb MbtI inh 3, PV pol inh 102 and PV pol inh intensity 101.
CCN1C(=S)SC(=O)C1=C1C=C(C)N(CCO)C(C)=C1 was read as Mtb MenB inh -382, Mtb MbtI inh 28, PV pol inh 101 and PV pol inh intensity 218.
Screening COc1ccc2[nH]c3ccccc3c2c1 returned Mtb MenB inh -11, Mtb MbtI inh 88, PV pol inh 100 and PV pol inh intensity 103.

Next part:
`N#Cc1ccc(COc2cccc[n+]2[O-])cc1` gave Mtb MenB inh 1, Mtb MbtI inh 18, PV pol inh 107 and PV pol inh intensity 113.
CC(C)NC(=O)c1c2c(nn1C)-c1ccccc1SC2 was read as Mtb MenB inh 0, Mtb MbtI inh 5, PV pol inh 99 and PV pol inh intensity 101.
CCC(Cc1ccccc1)NC(=O)Cn1c(=O)oc2cc(S(=O)(=O)NCc3ccccc3)ccc21 (configuration not stated) was read as Mtb MenB inh -23, Mtb MbtI inh -11, PV pol inh 99 and PV pol inh intensity 102.
CC(C)CC(=O)Nc1ccc(C(=O)CN2CCN(c3ccc(O)cc3)CC2)cc1 was read as Mtb MenB inh -21, Mtb MbtI inh 45, PV pol inh 101 and PV pol inh intensity 99.
For CC(NC(=O)c1ccc(C#N)cc1)C(c1cccs1)N1CCCC1 (configuration not stated) the results were Mtb MbtI inh -3, PV pol inh 101 and PV pol inh intensity 106.
CC1CN(/C(=N\S(=O)(=O)c2ccccc2)c2ccccc2)CC(C)O1 (configuration not stated) was read as Mtb MenB inh -2, Mtb MbtI inh 10, PV pol inh 104 and PV pol inh intensity 99.
`CN(C)S(=O)(=O)c1ccc(=O)n(C(C(=O)NC2CC2)c2ccccc2)c1` (configuration not stated) gave Mtb MenB inh -7, Mtb MbtI inh -2, PV pol inh 102 and PV pol inh intensity 112.
O=C(COC(=O)c1ccc2c(=O)n3c(nc2c1)CCCCC3)NCC1CCCCC1 was read as Mtb MenB inh 8, Mtb MbtI inh 61, PV pol inh 99 and PV pol inh intensity 107.
For O=C1c2ccccc2S(=O)(=O)N1CCSc1ncc(C(F)(F)F)cc1Cl the results were Mtb MenB inh -13, Mtb MbtI inh 0, PV pol inh 103 and PV pol inh intensity 105.
CSc1ccc(CCNC(=O)c2ccc3snnc3c2)cc1 was read as Mtb MenB inh -10, Mtb MbtI inh -10, PV pol inh 104 and PV pol inh intensity 108.
For Cc1nn(-c2ccccc2)c2c1C(O)n1c(nc3ccccc31)S2 (configuration not stated) the results were Mtb MenB inh 10, Mtb MbtI inh -14, PV pol inh 104 and PV pol inh intensity 108.
`CCN(CC(=O)Nc1ccc(SC(F)F)cc1)CC1COc2ccccc2O1` (configuration not stated) gave Mtb MenB inh -24, Mtb MbtI inh -11, PV pol inh 106 and PV pol inh intensity 102.
Screening Cn1c(SCc2cc(=O)n3cc(Br)ccc3n2)nnc1-c1ccco1 returned Mtb MenB inh -29, Mtb MbtI inh -11, PV pol inh 103 and PV pol inh intensity 108.
Screening Oc1c(C=Nc2ccc(Br)cc2)sc2ccccc12 returned Mtb MenB inh -9, PV pol inh 173 and PV pol inh intensity 191.
For CCc1c(C)c(C#N)c2nc3ccccc3n2c1Nc1ccncc1 the results were Mtb MenB inh -15, Mtb MbtI inh 1, PV pol inh 99 and PV pol inh intensity 108.

By substructure: the compounds so far with a tert-butyl group (3)
`CC(C)(C)c1cn(-c2ccc(F)cc2)c(=S)[nH]1` gave Mtb MenB inh 3, Mtb MbtI inh 12, PV pol inh 99 and PV pol inh intensity 98.
`CC(C)(C)C(=O)Nc1ccc(N2CCN(C(=O)c3ccco3)CC2)c(Cl)c1` gave Mtb MenB inh -33, Mtb MbtI inh -11, PV pol inh 101 and PV pol inh intensity 98.
For CC(C)(C)C(=O)CSc1ncccn1 the results were Mtb MbtI inh 47, PV pol inh 102 and PV pol inh intensity 106.

Taken from the entries so far (2 entries):
Screening Oc1c(C=Nc2ccc(Br)cc2)sc2ccccc12 returned Mtb MenB inh -9, PV pol inh 173 and PV pol inh intensity 191.
For CCc1c(C)c(C#N)c2nc3ccccc3n2c1Nc1ccncc1 the results were Mtb MenB inh -15, Mtb MbtI inh 1, PV pol inh 99 and PV pol inh intensity 108.

Source: PubChem (ICCB-Longwood Screening Facility, Harvard Medical School)

An unsorted share of the library; overall some 1.7% were active at least once.
